Measles inh: inhibitors of measles virus growth in infected cells. hit rate 0.1% among 33,000. AID 745. z-score (no concentration beside the values). infected Vero cells, GFP fluorescence, 64 h; stronger effect = lower value;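 active = z-score under -3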;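 note: score is relative to mean and SD of the compound wells of a plate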
* marks the source's active call; other numbers are inactive results.

SMILES | Measles inh
Fc1ccc(N2CCN(c3nc(-c4ccco4)cc(C(F)(F)F)n3)CC2)cc1 | -1.1
OCCCc1nc2ccccc2n1Cc1ccc2ccccc2c1 | -2.1
O=S1(=O)C=C(SCCN2CCOCC2)c2ccccc21 | -0.17
CCOc1cccc(C(=O)Nc2ccc3nn(-c4ccc(C)c(C)c4)nc3c2)c1 | -0.74
COCCCNc1ncnc2sc3c(c12)CCC(C)C3 (stereo not drawn) | -0.13
COc1cc(C2NC(C(=O)O)CS2)cc(OC)c1OC (stereo not drawn) | 0.34
O=C(CN1C(C(=O)c2ccccc2)=C(NCCO)c2ccccc2S1(=O)=O)c1ccc(Br)cc1 | -1.9
Cc1ccc(Cl)cc1N1CCN(C(=O)C2c3ccccc3C(=O)N(C)C2c2c[nH]c3ccccc23)CC1 (stereo not drawn) | -0.61
C=CCn1cc(C(=O)NCCC2=CCCCC2)c(=O)c2cc(S(=O)(=O)N3CCCCCC3)ccc21 | 1.5
O=[N+]([O-])c1ccccc1S(=O)(=O)N1CCN(Cc2cccs2)CC1 | -0.26
CC1=C(C(=O)Nc2cc(C)ccn2)C(c2ccccc2C)C2=C(CCCC2=O)N1 (stereo not drawn) | 1.9
N#CCc1nc(=O)c2ccccc2s1 | 8.5
Cc1ccc(CNC(=O)c2cc3ccccc3c(=O)o2)cc1 | 1.8
O=C(Nc1nnc(CCS(=O)(=O)c2ccc3ccccc3c2)s1)c1ccc(F)cc1 | -0.48
O=C(CN1CCN(c2ccc([N+](=O)[O-])c(N3CCCCC3)c2)CC1)N1CCOCC1 | 1.2
CC1=C(C(=O)Nc2ccc(C)cn2)C(c2ccc(N(C)C)cc2)C2=C(CCCC2=O)N1 (stereo not drawn) | 0.37
COc1ccc(Cn2c(SCc3ccc(F)cc3)nc3ccc(N4CCOCC4)cc3c2=O)cc1 | -1.2
CCN(C(=O)Cc1c(C(=O)O)[nH]c2ccccc12)c1cccc(C)c1 | -0.3
O=C(CCCn1c(=S)[nH]c2cc3c(cc2c1=O)OCO3)NCCc1ccc(Cl)cc1 | -0.26
CCCS(=O)(=O)N1CCCC(C(=O)NCCCOC)C1 (stereo not drawn) | 0.12
Cc1ccc(/C(O)=C2\C(=O)C(=O)N(CC(C)C)C2c2cccnc2)cc1 (stereo not drawn) | -1.1
CC1CC(C)CN(S(=O)(=O)N2CCCC(C(=O)NCCN3CCCC3)C2)C1 (stereo not drawn) | -0.45
Cc1ccc(C)c(NS(=O)(=O)c2ccc(Cl)cc2[N+](=O)[O-])c1 | -1.3
CCCOc1ccc(N)cc1N | -0.34
COc1ccc(NC(=O)Cc2c(C(=O)O)[nH]c3ccccc23)cc1Cl | 1.1
Cc1ccc2c(c1)C1CC(C)(NC(=S)N1)O2 (stereo not drawn) | -0.22
COc1cc2c(cc1OC)C(C(=O)N1CCN(c3ccccc3OC)CC1)C(c1ccccc1F)N(C)C2=O (stereo not drawn) | -0.56
COCCCNc1nc2c(c(=O)n(C)c(=O)n2C)n1C | -0.2
CC(=O)c1ccc(NC(=O)c2ccc(C)c([N+](=O)[O-])c2)cc1 | 0.44
O=C(CSN1CN(c2ccccc2)C(COc2ccccc2)=N1)NC1CCCCC1 | 0.59
Cc1sc(C(=O)Nc2ccccc2)c2c1C(=O)NC(C)(c1cccs1)N2 (stereo not drawn) | 0.27
CC(=O)OCCCN1C(=O)c2ccc(Oc3cccc([N+](=O)[O-])c3)cc2C1=O | 0.68
COc1ccc(Cl)cc1N(C)C(=O)CCn1c(=S)oc2ccccc21 | 0.55
Cc1c(Cl)cccc1NC(=O)C1C(C=C(Cl)Cl)C1(C)C (stereo not drawn) | 1.3
CC1=C(C(=O)OCCC(C)C)C(c2ccccc2Cl)NC(=O)N1 (stereo not drawn) | -1.2
CSc1nc(N)nc(SCc2ccc(F)cc2)c1C#N | -0.08
Cc1ccccc1N1CC23C=CC(O2)C(C(=O)OC(C)C)C3C1=O (stereo not drawn) | 1.5
CCOC(=O)C1=C(C)NC2=C(C(=O)c3ccccc32)C1c1ccc(CC)cc1 (stereo not drawn) | -1.2
CC(=O)N(C)c1ccc(NC(=O)c2ccco2)cc1 | 0.55
COC(=O)c1cccc(C(=O)Nc2ccc(I)cc2)n1 | 0.33
O=[N+]([O-])c1cccc(-c2n[nH]nc2[N+](=O)[O-])c1 | -0.71
O=c1[nH]c2ccc(N=Cc3ccc(-c4ccc([N+](=O)[O-])cc4)o3)cc2[nH]1 | -0.62
COc1ccc(C2(C(F)(F)F)N=C3Sc4cc(C)ccc4N3C(=O)N2)cc1 (stereo not drawn) | -0.23
CCOC(=O)c1c(NC(=O)CSc2nc3c([nH]c4ccccc43)c(=O)n2C)sc2c1CCC2 | 0.42
CCCn1c2ccccc2c2n[nH]c(=S)nc21 | -0.86
Cc1c(NC(=O)c2ccc([N+](=O)[O-])o2)cccc1-c1nc2ccccc2o1 | -0.09
O=C(Nc1ccc(S(=O)(=O)N2CCCC2)cc1)c1sc2ccccc2c1Cl | -1.3
CCNC(=NCCc1ccccc1)SC1CC(=O)N(c2ccccc2)C1=O (stereo not drawn) | -2
CCn1cc(SCC(=O)Nc2cccc(C)c2C)c2ccccc21 | -1.4
Cc1ccc(N2C(=O)CC(NCCC34CC5CC(CC(C5)C3)C4)C2=O)c(C)c1 (stereo not drawn) | 0.71
O=C(CCn1c(=O)[nH]c2ccsc2c1=O)N1CCN(c2ccccn2)CC1 | -0.89
Cc1cc(NC(=O)c2ccc(S(=O)(=O)N3CCOCC3)cc2)nc2c1c(=O)oc1ccccc12 | 0.94
Cc1cccc(C(=O)Nc2ccc3nc(SCC(=O)NCc4ccccc4)sc3c2)c1 | 0.78
Clc1nc(-c2ccccc2)ncc1-c1ccccc1 | -0.59
CCN(Cc1ccccc1)S(=O)(=O)c1ccc(F)c(C(=O)Nc2ccc(F)cc2)c1 | 1.1
O=C(Nc1nc2ccc([N+](=O)[O-])cc2s1)c1ccc(S(=O)(=O)N2CCc3ccccc3C2)cc1 | 1.6
COc1cc(NC(=O)COc2ccccc2C(C)(C)C)c(OC)cc1Cl | 1.2
COc1ccc(C2=NN3C(C2)c2cc(OC)ccc2OC3c2ccc(OC)c(OC)c2)cc1 (stereo not drawn) | -0.17
CC1CCC2(CC1)SCC(=O)N2c1ccc(F)cc1 (stereo not drawn) | 0.03
O=C(O)c1cc(-c2ccc([N+](=O)[O-])c(C(=O)O)c2)ccc1[N+](=O)[O-] | 1.7

Looked up one by one from above, two records:
SMILES | Measles inh
CCn1cc(SCC(=O)Nc2cccc(C)c2C)c2ccccc21 | -1.4
O=C(O)c1cc(-c2ccc([N+](=O)[O-])c(C(=O)O)c2)ccc1[N+](=O)[O-] | 1.7

(next part)
SMILES | Measles inh
O=C(NCCCN1CCCCCC1)c1cc(=O)[nH]c2ccc(S(=O)(=O)N3CCCCCC3)cc12 | 2.2
CCC1CCCCN1S(=O)(=O)c1ccc2[nH]c(=O)c(=O)[nH]c2c1 (stereo not drawn) | -0.61
CCOC(=O)c1ccc(NC(=O)c2cnc3n(c2=O)CCS3)cc1 | -0.71
CCn1cc(C(=O)N2CCc3ccccc32)c(=O)c2cc(S(=O)(=O)N(C)C3CCCCC3)ccc21 | -0.07
O=C(C(Cc1ccccc1)NS(=O)(=O)c1ccc(Br)s1)N1CCN(C2CCCCC2)CC1 (stereo not drawn) | 0.12
C=CCOC(=O)C1=C(C)NC2=C(C(=O)CC(C)(C)C2)C1c1ccc(I)cc1 (stereo not drawn) | -1.1
COc1ccc(C2C(C(=O)Nc3ccc(C(F)(F)F)cc3)CC(=O)N2c2ccc(OC)cc2)cc1 (stereo not drawn) | -0.94
CC(=O)c1nn(-c2ccc([N+](=O)[O-])cc2)cc1C(=O)c1cccs1 | -0.14
O=C(CSc1nc2c(sc3ccccc32)c(=O)n1CCCN1CCCC1)Nc1ccc(F)cc1 | -1.3
Cc1cc(NC(=O)c2cc(-c3ccc(C)s3)nc3ccccc23)no1 | 1
CS(=O)(=O)c1ccc2nc(NC(=O)c3ccccc3)sc2c1 | -0.76
CCOc1ccccc1NC(=O)CSC1=NN2CCCC(=O)N=C2S1 | -0.43

Part of the list above in order of number of heavy atoms, descending.
SMILES | Measles inh
CCn1cc(C(=O)N2CCc3ccccc32)c(=O)c2cc(S(=O)(=O)N(C)C3CCCCC3)ccc21 | -0.07
O=C(CSc1nc2c(sc3ccccc32)c(=O)n1CCCN1CCCC1)Nc1ccc(F)cc1 | -1.3
COc1ccc(C2=NN3C(C2)c2cc(OC)ccc2OC3c2ccc(OC)c(OC)c2)cc1 (stereo not drawn) | -0.17
O=C(C(Cc1ccccc1)NS(=O)(=O)c1ccc(Br)s1)N1CCN(C2CCCCC2)CC1 (stereo not drawn) | 0.12
C=CCOC(=O)C1=C(C)NC2=C(C(=O)CC(C)(C)C2)C1c1ccc(I)cc1 (stereo not drawn) | -1.1
COc1cc(NC(=O)COc2ccccc2C(C)(C)C)c(OC)cc1Cl | 1.2
CCOc1ccccc1NC(=O)CSC1=NN2CCCC(=O)N=C2S1 | -0.43
O=C(O)c1cc(-c2ccc([N+](=O)[O-])c(C(=O)O)c2)ccc1[N+](=O)[O-] | 1.7
CCC1CCCCN1S(=O)(=O)c1ccc2[nH]c(=O)c(=O)[nH]c2c1 (stereo not drawn) | -0.61
CS(=O)(=O)c1ccc2nc(NC(=O)c3ccccc3)sc2c1 | -0.76
CC1CCC2(CC1)SCC(=O)N2c1ccc(F)cc1 (stereo not drawn) | 0.03

The list continues.
SMILES | Measles inh
COc1cc2c(cc1OC)C(C(=O)N1CCCC(C)C1)C(c1cccnc1)N(C)C2=O (stereo not drawn) | -0.88
CSc1ccc(C2N(Cc3ccccc3)CCN2Cc2ccccc2)cc1 | 1.1
Cc1ccc2nc(-c3ccccc3)cn2c1 | -0.82
COc1ccc(CCNC2CC(=O)N(c3ccc(NC(C)=O)cc3)C2=O)cc1OC (stereo not drawn) | 0.73
COc1ccc(OC)c(-n2cnc3cc(C(=O)O)ccc32)c1 | -0.08
CC(C)CN(CC(C)C)C(=O)c1c(NC(=O)c2ccccc2)sc2c1CCCC2 | -0.06
O=C1CCCc2oc3ccc(NS(=O)(=O)c4ccc(Cl)c([N+](=O)[O-])c4)cc3c21 | -0.13
Cc1oc(-c2cccs2)nc1CSCC(=O)NC1CC1 | 1.6
CC(=O)Oc1ccc2oc(-c3ccccc3)c(C(=O)O)c2c1 | 0.61
Cc1ccc(NC(=O)CCCCCN2C(=O)c3ccccc3C2=O)c(C)c1 | 1.1
Nc1nonc1-c1noc(-c2ccc(Br)o2)n1 | 0.19
CCOC(=O)C1=CN(C(C)C)C=C(C(=O)OCC)C1c1cccc(OC)c1 | 1.3
CC(=O)Nc1ccc(NC(=O)CC2OCC3CCCCN3C2=O)cc1 (stereo not drawn) | 0.05
CCCCNC(=O)CCN1C(=O)C(C)Oc2ccc(C)cc21 (stereo not drawn) | 1.2
CCN(c1cccc(C(F)(F)F)c1)S(=O)(=O)c1ccc2c(c1)CCN2C(=O)C1CCC1 | -0.75
C=CCSc1nnc2c(n1)OC(c1ccccn1)N(C(C)=O)c1ccccc1-2 (stereo not drawn) | 0.92
CCSc1nnc2c(n1)OC(c1ccc(OC)c(O)c1)Nc1ccccc1-2 (stereo not drawn) | 0.06
CCOC(=O)C1=C(C)Nc2nnnn2C1c1ccc(Br)cc1 (stereo not drawn) | 0.23
COc1ccc(N2C(=O)CSC2c2cccc([N+](=O)[O-])c2O)cc1 (stereo not drawn) | -1.2
CCCCn1c(SCC(N)=O)nc2c1c(=O)[nH]c(=O)n2C | 0.62
O=C(NCc1ccc(Cl)cc1)c1cc(-c2ccc(Br)cc2)on1 | 1.4
COc1ccc2ccccc2c1-c1csc(N)n1 | 0.02
Cc1cc2nc(-c3cccc(NC(=O)COc4ccc(Br)cc4)c3)oc2cc1C | -1
COC(=O)C1=C(C)N(C)C(C)=C(C(=O)OC)C1c1ccc(OC)cc1OC | 0.66
CC1CCc2cc(F)ccc2N1C(=O)Nc1cccc(Cl)c1 (stereo not drawn) | 0.96
COc1ccccc1C(=O)Oc1cccc(N2C(=O)C3CCCCC3C2=O)c1 (stereo not drawn) | -0.12
Cc1c(Br)c(C(F)(F)F)nn1CC(=O)N1CCc2ccccc2C1 | -0.7
CCOc1ccc(NC(=O)CSc2nc3c(c(=O)n2-c2ccccc2)SCC3)cc1 | 0.45
CCOC(=O)c1c(NC(=O)c2cc3ccccc3oc2=O)sc(C(=O)CC)c1C | -0.81
CCOc1ccc(OCC)c(NS(=O)(=O)c2cc(Br)cc3c2N(C(C)=O)C(C)C3)c1 (stereo not drawn) | -0.51
C#CCN1C(=O)C(O)(CC(=O)c2ccc(OC)c([N+](=O)[O-])c2)c2ccccc21 (stereo not drawn) | -0.5
CCOC(=O)C1CCCN(C(=O)Cn2cnc3c2c(=O)n(C)c(=O)n3C)C1 (stereo not drawn) | -0.04
O=C(O)C1CCN(S(=O)(=O)c2ccccc2[N+](=O)[O-])CC1 | 0.52
O=C(Nc1cc(C(=O)N2CCCCCC2)ccc1N1CC2CC(C1)c1cccc(=O)n1C2)c1cccc(C(F)(F)F)c1 (stereo not drawn) | -0.57
O=C(Nc1cc(C(=O)N2CCN(c3ccc(F)cc3)CC2)ccc1N1CC2CC(C1)c1cccc(=O)n1C2)c1ccc(F)cc1 (stereo not drawn) | 0.6
CN(C)C(C)(C)C#CCCCCC#CC(C)(C)N(C)C | -0.16
COc1ccc2cc(S(=O)(=O)N3CCCC(C)C3)ccc2c1 (stereo not drawn) | 0.12
CCOc1cc(C2C3=C(CC(C)(C)CC3=O)N(C)C3=C2C(=O)CC(C)(C)C3)cc(Br)c1OC | -0.22
Cc1cccc(NC(=O)c2c(NC(=O)c3ccncc3)sc3c2CCC(C(C)(C)C)C3)c1 (stereo not drawn) | -0.43
CN1CCc2c(sc3c2C(=O)NC(c2ccc(O)cc2)N3)C1 (stereo not drawn) | 0.92
O=C(Nc1ccc([N+](=O)[O-])cn1)c1cccc(COc2cccc(Cl)c2)c1 | -0.29
COc1cc(C(=O)Nc2c3c(nn2C(C)(C)C)CS(=O)C3)cc(OC)c1OC (stereo not drawn) | 0.99
COC(=O)c1ccc(CSc2ncnc3c2oc2ccccc23)o1 | -0.34

Assay outcomes from PubChem BioAssay.

The list is partial, so the mix of outcomes need not match the whole.
